HCMV UL50-53 inh = inhibitors of HCMV UL50-UL53 nuclear egress complex interaction; actives 0.15% (n = 190,000); inhibition, % (no concentration beside the values); HTRF UL50-UL53 interaction, normalized percent inhibition;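 active = both replicates at 50% or more, plus weaker picks with an unusually low signal ratio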;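 also: stock transfer was 100 nL into about 20 µL; 0% = negative control wells and 100% = wells with untagged competitor protein; inactives centre near -12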
Sa growth 42C = S. aureus growth inhibition | actives 0.53% (n = 170,000) | AID 720641 | relative growth, % (concentration not given with the values) | S. aureus RN4220 growth, OD600, 20 h, 42 °C; stronger effect = lower value;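 active = growth at 42 °C up to 50% and 20 or more points under that at 30 °C, or under 10% at both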;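 also: 300 nL library stock went into each well; scaled to the means of positive and negative controls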
GIV Gai3 FP = GIV-Galpha-i interaction inhibition | P08753 | Galpha-i3/FITC-GIV peptide fluorescence polarization, 90 min; stronger effect = lower value; scaled: aluminum fluoride 0%, vehicle 100% | percent of control (FP), % (test concentration not listed) | actives 0.42% (n = 210,000);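 active = replicate mean at 85% of control or lower, very high polarization wells dropped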;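 also: wells of about 15 µL received 100 nL stock; the first replicate is given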
Target sequence (P08753 whole entry, looked up): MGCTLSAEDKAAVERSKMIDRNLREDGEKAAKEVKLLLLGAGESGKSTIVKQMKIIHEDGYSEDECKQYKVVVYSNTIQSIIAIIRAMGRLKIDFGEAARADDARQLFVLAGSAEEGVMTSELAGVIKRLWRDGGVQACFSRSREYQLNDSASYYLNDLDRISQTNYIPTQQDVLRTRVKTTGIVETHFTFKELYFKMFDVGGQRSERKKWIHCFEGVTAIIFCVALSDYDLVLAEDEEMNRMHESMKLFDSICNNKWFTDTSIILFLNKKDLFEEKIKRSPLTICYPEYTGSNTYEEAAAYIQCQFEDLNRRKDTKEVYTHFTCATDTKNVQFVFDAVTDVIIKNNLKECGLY
Sa growth 42C second temp = also measured in Sa growth 42C; calls as there; relative growth, %; measured here: growth at 30 °C;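 optical density after 20 h as mean of two plates; 100% = untreated growth and lower means inhibition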
Starred values were filed as active, the others as inactive; · = no result given; & = joins results of further samples.

SMILES	HCMV UL50-53 inh	Sa growth 42C	Sa growth 42C second temp	GIV Gai3 FP
O=C(CSc1nc2cc3c(cc2c(=O)n1CCC(=O)N1CCN(c2ccccc2)CC1)OCO3)c1ccccc1	-3.7	99.6	92.9	107.0
CCOc1ccc(C(=O)N(Cc2nc(-c3cccc(C)c3)no2)C(C)C)cc1	9.7	94.1	87.6	101.1
COc1cccc(Cn2cnc3oc(C)c(C)c3c2=O)c1	-25.3	·	·	99.9
Fc1ccc(-c2ccc(CNc3ncn[nH]3)o2)cc1Cl	-4.2	·	·	100.6
Cc1ccc(S(=O)(=O)/N=C(\c2ccccc2)n2nnc3ccccc32)cc1	19.0	123.9	95.4	106.9
CC1(C)CC(=O)C2=C(C1)Nc1nc(N)[nH]c(=O)c1C2c1ccc(F)cc1 (stereo unspecified)	-17.1	97.0	82.7	102.5
Cc1nn(-c2cccc(C(F)(F)F)c2)c2sc(C(=O)NC3=NCCS3)cc12	-24.1	98.9	99.3	·
CCOc1ccc(C(=O)N2CCN(CCc3ccccn3)CC2)cc1	-16.4	102.0	86.9	93.4
CCc1cccc(NC(=O)CC(=O)Nc2ccc3nc4n(c(=O)c3c2)CCCCC4)c1	-1.7	97.8	82.1	112.6
COc1ccc(NC(=S)NC(=O)COc2ccccc2)cc1	5.1	96.2	91.3	·
CCOC(=O)C1CCCN(C(=O)c2cc3c(Cl)nc4ccccc4c3s2)C1 (stereo unspecified)	-25.3	100.8	68.7	102.1
Cc1cc(=O)[nH]c(SCC(=O)N2CCc3ccccc32)n1	-6.1	101.9	89.7	·
Fc1ccc(-c2nnc(CN3CCN(c4ccccn4)CC3)o2)cc1	-8.9	95.7	88.5	102.8
Cc1ccc(OCC(=O)N(Cc2ccco2)C2CCS(=O)(=O)C2)cc1 (stereo unspecified)	4.2	102.4	95.2	107.4
COC(=O)Nc1ccc(S(=O)(=O)N(C)CC(F)(F)C(F)F)cc1	-22.2	90.1	86.0	94.8
CN(C(=O)c1ccccc1C(=O)O)C1CCCCC1	-28.6	90.6	89.8	·
O=C1NC(=S)N(c2ccccc2)C(=O)C1C(c1ccc([N+](=O)[O-])cc1)C1C(=O)NC(=S)N(c2ccccc2)C1=O (stereo unspecified)	-35.6	·	·	100.3
Cc1ccn2cc(CNS(=O)(=O)c3ccc(Cl)s3)nc2c1	·	88.4	78.9	106.9
CCSc1nnc(-c2ccc(OC)cc2)n1-c1ccccc1	-22.2	121.5	82.9	·
CCOC(=O)c1c(C)c(C#N)c(NC(=O)C(C)(C)C)n1-c1ccccc1	-7.9	109.9	79.2	107.8
Cc1cccc(NC(=O)Cn2c(=O)n(Cc3nc(C)no3)c(=O)c3ccccc32)c1	-12.2	·	·	107.4
Cc1ccc(CSc2nc3ccccc3n3c(C)nnc23)cc1	-12.1	·	·	107.1
Cc1ccc(-c2noc(CCC(=O)Nc3nccs3)n2)c(=O)n1C(C)C	-2.9	·	·	107.6
Cc1cc2cc(CCNC(=O)c3c(-c4ccccc4Cl)noc3C)c(=O)[nH]c2cc1C	-10.9	99.3	92.7	110.2
CC(C)(C)C(=O)Cn1nnc(-c2ccc(C(F)(F)F)cc2)n1	-23.6	102.2	85.9	106.1
Cc1onc(-c2ccccc2)c1-c1nnc(-c2ccccc2C(F)(F)F)o1	-3.9	93.5	81.8	108.9
CC(=O)NC(C)C(=O)N1CCc2ccccc2C1 (stereo unspecified)	-31.2	64.2	89.6	·
CN1C(=O)c2cc(C(=O)N3CCN(C4CCCCC4)CC3)nn2CC1(C)C(=O)NC1CCCCC1 (stereo unspecified)	-6.6	·	·	99.0
Cc1ccc2[nH]cc(NC(=O)NCCO)c(=O)c2c1	-33.3	106.4	85.3	102.6
CCn1c(=O)cc(SCC(=O)N2CCN(c3cc(C)ccc3C)CC2)c2ccccc21	-45.7	108.9	87.2	102.8
CCCN1CC=C2C(C#N)=C(N)C(C#N)(C#N)C(c3cccc(OC)c3)C2C1 (stereo unspecified)	-40.6	93.5	67.0	104.8
CCN(CC)c1ccc(C(=O)N2CCc3c([nH]c4ccccc34)C2c2ccc(F)cc2)cc1 (stereo unspecified)	·	99.5	89.8	95.9
NNC(=O)c1c(O)c2c([nH]c1=O)CCCC2	·	106.8	80.3	98.5
Nc1cc(C(F)(F)F)c[nH]c1=O	-38.3	96.8	94.7	·
O=c1c(N2CCOCC2)nsn1Cc1ccccc1	-6.6	96.8	93.2	96.1
Clc1ccc(-c2csc(-c3cccnc3)n2)s1	-46.1	88.8	76.7	100.6
CCCC(=O)Nc1ccc(Nc2cc(C)nc(NCC)n2)cc1	-7.5	·	·	109.2
O=C(NCCCN1CCOCC1)C1CCC(=O)N1Cc1ccccc1Cl (stereo unspecified)	7.2	110.3	91.1	97.2
CCNC(=O)N1c2cc(C)ccc2C(C)=CC1(C)C	14.7	99.9	93.1	108.4
COc1ccc(C(=O)NCc2ccc3c(c2)OCO3)cc1	·	99.7	99.2	109.4
O=C(O)c1cccc(Nc2nc(-c3cccs3)cs2)c1	-100.0	79.4	45.5	96.2
COc1ccc(NC(=O)CNc2ccc(C#N)cc2)cc1	-7.3	93.4	83.9	·
Cc1ccc(NC(=O)c2nnc(CCCC(=O)NCCc3c(C)noc3C)s2)cc1	-13.0	·	·	101.7
NC(=S)NNc1ccc(Cl)c(Cl)c1	-25.3	55.1	43.1	105.5
Cc1c(C)n(Cc2ccc(F)cc2)c2ccc(C(=O)N3CCN(c4ccc(F)cc4)CC3)cc12	·	111.8	92.8	105.0
CCOc1ccccc1CNCc1c(C(=O)O)n(Cc2ccc(F)cc2)c2cc(C)ccc12	·	94.7	87.2	103.7
N#CCc1nc(-c2ccc(C(F)(F)F)cc2)n[nH]1	-32.9	101.8	97.1	104.1
COC(=O)c1c(NC(=O)CCN2C(=O)c3ccccc3C2=O)sc2c1CCC2	-13.1	·	·	99.5
COc1ccc(NC(=O)CSc2nc(-c3ccccc3)cc(-c3cc(OC)c(OC)c(OC)c3)c2C#N)c(OC)c1	-34.8	104.6	94.5	105.1
N#Cc1c(OCC(F)(F)F)ccc(S(=O)(=O)N2CCCC2)c1OCC(F)(F)F	-49.1	73.8	85.6	100.4
O=C(CC1CCCC1)N1CCCC(c2nc3c(nnn3Cc3ccccc3)c(=O)[nH]2)C1 (stereo unspecified)	-5.5&-11.6	123.0	83.0	110.6&96.6
CCCCNS(=O)(=O)c1cccs1	-28.1	79.6	72.0	·
O=C(Cn1cnc([N+](=O)[O-])n1)NCc1ccccc1	-74.0	·	·	101.3
O=C(Cc1ccccc1)NCCc1nc(-c2ccccc2)n[nH]1	-8.9	·	·	98.6
Cc1nc(Nc2ccc(NC(=O)Nc3ccc4c(c3)OCCO4)cc2)cc(N2CCOCC2)n1	-38.5	·	·	100.4
Cc1cccc2cc(CN(c3ccccc3)S(C)(=O)=O)c(=O)[nH]c12	-16.2	·	·	99.8
Cc1cc(C)cc(NC(=O)N2CCC3(CC2)CC(=O)c2ccccc2O3)c1	15.7	·	·	101.0
O=C(Nc1ccccc1)c1cc2n(n1)C(C(F)(F)F)CC(c1ccco1)N2 (stereo unspecified)	1.9	85.1	80.2	101.9
CC(C)(C)CC(=O)NC(=S)Nc1ccccc1	2.3	105.7	99.2	104.8
CN1CCN(CCNC(=O)c2cnn(-c3ccc(F)cc3)c2C2CCN(C(=O)OC(C)(C)C)CC2)CC1	·	93.2	85.5	97.3
Following part
SMILES	HCMV UL50-53 inh	Sa growth 42C	Sa growth 42C second temp	GIV Gai3 FP
CCOC(=O)c1cnc2c(OC)cccc2c1N1CC(C)CC(C)C1 (stereo unspecified)	·	99.4	87.8	98.8
COc1ccc(-c2nnc(SCCOc3ccccc3C)o2)cc1OC	-9.6	110.9	86.0	100.1
O=C1C2C(c3ccccc3)C=CC(c3ccccc3)C2C(=O)N1Cc1ccccc1 (stereo unspecified)	-22.1	94.8	80.2	·
O=C(c1cc2n(n1)C(C(F)(F)F)CC(c1ccc(Cl)cc1)N2)N1CCN(Cc2ccccc2)CC1 (stereo unspecified)	-15.4	·	·	90.5
Cc1oc(-c2cccc(Br)c2)nc1Cn1c(SCc2cccc(F)c2)nc2cccnc21	·	120.0	93.4	102.8
O=C(Oc1ccc(F)cc1)c1c(Cl)cccc1Cl	·	113.7	109.0	105.7
Cc1ccc(CCNC(=O)C2CCN(c3nc4ccccc4o3)CC2)cc1	·	121.4	91.9	101.0
COc1ccc(NC(=O)COCc2cc(-c3ccc4c(c3)OCO4)on2)cc1	·	130.9	85.2	102.0
COCC(C)NS(=O)(=O)c1ccc(NC(=O)C(Cc2ccccc2)NC(N)=O)cc1 (stereo unspecified)	-32.7	91.1	84.1	·
COc1ccc(NC(=O)CSc2oc(-c3ccc(C)cc3)nc2S(=O)(=O)c2ccc(C)cc2)c(OC)c1	-13.6	87.4	91.3	100.2
Cc1ccc(C2=NC(c3ccc(F)cc3)=Nc3ccc(C)cc3N2)cc1	-33.5	114.1	89.2	101.4
COc1ccc2c(c1)c(CC(=O)NC1CCCC1)c(C)n2C(=O)c1ccc(Cl)cc1	-7.8	102.1	91.4	·
COc1ccc(CNC2CCCCC2C)cc1 (stereo unspecified)	-13.6	95.5	106.5	106.1
C/C(=N\NC(=O)c1cccc(S(=O)(=O)Nc2ccc(C)cc2C)c1)c1ccco1	-35.9	95.8	88.3	·
CCc1nc2ccccc2n1CC(O)COc1ccc(C)c(C)c1 (stereo unspecified)	-20.4	·	·	107.2

An excerpt of these results, with two lines to a compound.
Each structure is followed by: HCMV UL50-53 inh, Sa growth 42C, Sa growth 42C second temp, GIV Gai3 FP
> O=C(CSc1nc2cc3c(cc2c(=O)n1CCC(=O)N1CCN(c2ccccc2)CC1)OCO3)c1ccccc1
    -3.7, 99.6, 92.9, 107.0
> CCOc1ccc(C(=O)N(Cc2nc(-c3cccc(C)c3)no2)C(C)C)cc1
    9.7, 94.1, 87.6, 101.1
> COc1cccc(Cn2cnc3oc(C)c(C)c3c2=O)c1
    -25.3, ·, ·, 99.9
> Fc1ccc(-c2ccc(CNc3ncn[nH]3)o2)cc1Cl
    -4.2, ·, ·, 100.6
> Cc1ccc(S(=O)(=O)/N=C(\c2ccccc2)n2nnc3ccccc32)cc1
    19.0, 123.9, 95.4, 106.9
> CC1(C)CC(=O)C2=C(C1)Nc1nc(N)[nH]c(=O)c1C2c1ccc(F)cc1 (stereo unspecified)
    -17.1, 97.0, 82.7, 102.5
> Cc1nn(-c2cccc(C(F)(F)F)c2)c2sc(C(=O)NC3=NCCS3)cc12
    -24.1, 98.9, 99.3, ·
> CCOc1ccc(C(=O)N2CCN(CCc3ccccn3)CC2)cc1
    -16.4, 102.0, 86.9, 93.4
> CCc1cccc(NC(=O)CC(=O)Nc2ccc3nc4n(c(=O)c3c2)CCCCC4)c1
    -1.7, 97.8, 82.1, 112.6
> COc1ccc(NC(=S)NC(=O)COc2ccccc2)cc1
    5.1, 96.2, 91.3, ·
> CCOC(=O)C1CCCN(C(=O)c2cc3c(Cl)nc4ccccc4c3s2)C1 (stereo unspecified)
    -25.3, 100.8, 68.7, 102.1
> Cc1cc(=O)[nH]c(SCC(=O)N2CCc3ccccc32)n1
    -6.1, 101.9, 89.7, ·
> Fc1ccc(-c2nnc(CN3CCN(c4ccccn4)CC3)o2)cc1
    -8.9, 95.7, 88.5, 102.8
> Cc1ccc(OCC(=O)N(Cc2ccco2)C2CCS(=O)(=O)C2)cc1 (stereo unspecified)
    4.2, 102.4, 95.2, 107.4
> COC(=O)Nc1ccc(S(=O)(=O)N(C)CC(F)(F)C(F)F)cc1
    -22.2, 90.1, 86.0, 94.8
> CN(C(=O)c1ccccc1C(=O)O)C1CCCCC1
    -28.6, 90.6, 89.8, ·
> O=C1NC(=S)N(c2ccccc2)C(=O)C1C(c1ccc([N+](=O)[O-])cc1)C1C(=O)NC(=S)N(c2ccccc2)C1=O (stereo unspecified)
    -35.6, ·, ·, 100.3
> Cc1ccn2cc(CNS(=O)(=O)c3ccc(Cl)s3)nc2c1
    ·, 88.4, 78.9, 106.9
> CCSc1nnc(-c2ccc(OC)cc2)n1-c1ccccc1
    -22.2, 121.5, 82.9, ·

(continued)
SMILES	HCMV UL50-53 inh	Sa growth 42C	Sa growth 42C second temp	GIV Gai3 FP
O=C(Cc1csc(NC(=O)Nc2ccccc2)n1)Nc1ccc2c(c1)OCCO2	-20.0	·	·	108.8
CCOc1ccc(/C=C(\C#N)C(=O)Nc2sc3c(c2C(=O)OC)C(C(=O)OC)CC3)cc1OC (stereo unspecified)	-34.6	92.2	89.2	107.9
Cn1nc(C(=O)N(CCCN2CCOCC2)Cc2ccco2)c2c1-c1ccccc1SC2	-6.3	126.4	86.3	102.0
COc1ccc(CCNC(=S)N(C)C)cc1OC	-35.2	78.6	87.2	103.2
Cc1ccccc1-c1nc(C#N)c(NCCN2CCOCC2)o1	-3.5	98.5	98.9	107.4
O=C(Nc1nccs1)c1c(-c2ccccc2)nc2n1CCS2(=O)=O	-8.6	·	·	108.9
O=C1C2CC=CCC2C(=O)N1c1ccccc1O (stereo unspecified)	·	85.4	93.2	95.6
CCOc1ccc(-c2nnc3ccc(SCc4ccc(C(=O)OC)o4)nn23)cc1	·	95.7	89.4	106.7
CC(=O)N1c2ccccc2CC1C(=O)NCCc1ccc(S(N)(=O)=O)cc1 (stereo unspecified)	-28.1	·	·	100.1
